Source: PubChem BioAssay
TAR Tat displ – HIV-1 TAR-Tat binding disruption; HIV-1 TAR RNA, Tat peptide displacement FRET; stronger effect = higher value; z-score (test concentration not listed); 0.6% of 100,000 active; AID 1259389;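 further: score is relative to mean and SD of negative controls; some compounds called inactive have numbers as strong as hits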
CDC25B-CDK2 inh – human CDC25B-CDK2/CyclinA binding inhibition; 0.72% of 94,000 active; z-score (test concentration not listed); HTRF CDC25B-CDK2/CyclinA binding, anti-His/anti-Flag; stronger effect = higher value; AID 1259370;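 further: score is relative to mean and SD of negative controls; strong numbers were not always called active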
The depositor's hits bear a star; . = not tested or not shown.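 How the source made its calls: active means z-score from 3 up in half or more of its runs; inactive means the rest.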

SMILES | TAR Tat displ | CDC25B-CDK2 inh
Cc1cccc(CSc2nc(=O)c3c(n2C)NC(=O)CC3c2ccc3c(c2)OCCO3)c1 (stereo unspecified) | 1.1 | 0.34
CN1C(=O)C(C)(C)c2cc(S(=O)(=O)NCc3cccnc3)ccc21 | 1.9 | .
N=C1NC(=O)/C(=C/c2ccc(O)cc2)S1 | 2.2 | .
Cn1c(NCc2ccco2)nc2c1c(=O)n(Cc1ccc(Br)cc1)c(=O)n2C | 0 | -0.5
Cc1oc(-c2ccccc2)nc1CSc1nc2ccncc2[nH]1 | 0.95 | -2.7
COC(=O)c1ccc(NS(=O)(=O)c2c(C)nc3sccn3c2=O)cc1 | 2.1 | .
CC(C)(Oc1ccc(Cl)cc1)C(=O)Nc1nnc2n1CCS2 | 0.41 | .
COc1ccc(-c2cc(C)no2)cc1S(=O)(=O)Nc1ccc2c(c1)OCCO2 | 1.9 | .
Cc1cc(C)n(-c2nnc3n2N=C(c2c[nH]c4ccccc24)CS3)n1 | 2.4 | -1.7
O=C(CO)c1ccc(F)cc1 | . | -1.6
Cn1nc(C(=O)Nc2cccc(F)c2)c2c1-c1ccccc1S(=O)(=O)C2 | 1.3 | -1.9
N#CC12C(N)=NC3(OCCO3)C1(C#N)C2c1ccccc1Br (stereo unspecified) | . | -1.4
CCCn1c2ccccc2c2cnn(CC(=O)N3CCC(C)CC3)c(=O)c21 | 1.5 | .
O=C(NCc1ccco1)C1CCCN(S(=O)(=O)c2ccc3[nH]c(=O)ccc3c2)C1 (stereo unspecified) | -1.3 | .
Cc1oc2cc(OCC(=O)O)ccc2c(=O)c1Oc1ccccc1 | . | 0.16
O=C(Cn1cc2c(n1)CCCCC2)NCCCN1CCOCC1 | 0.86 | -0.17
CCN(CC)CCSc1nc(O)c(C(C)C)c(=O)[nH]1 | 2.8 | 0.01
COc1ccc(C2OC(c3cc(C4CC4)nc4ccccc34)=NN2C(C)=O)c(OC)c1 (stereo unspecified) | 9.2* | .
CSc1ccc(C2CC(c3cccs3)Nc3nnnn32)cc1 (stereo unspecified) | -0.26 | .
CCN1c2ccccc2NC2=C(C(=O)CC(C)(C)C2)C1c1cccs1 (stereo unspecified) | 2.6 | .
COc1ccc(C(C)=O)c(O)c1 | 0.97 | .
Cc1cccc(Nc2ncnc3onc(C)c23)c1 | 0.55 | .
CS(=O)(=O)N1N=C(c2cccs2)CC1c1cn(-c2ccccc2)nc1-c1ccccc1 (stereo unspecified) | -3 | -1.9
CCOC(=O)c1c(NC(=O)CSC2=NN3CCCC(=O)N=C3S2)sc2c1CCCC2 | . | -4
O=C(NC1CCCCC1)c1ccc2c(=O)n(Cc3ccccc3)c3n[nH]c(=O)n3c2c1 | -0.37 | -1.6
CCCS(=O)(=O)NCCc1cc2ccc(OC)cc2[nH]c1=O | . | -1.8
Cc1c(N2CCN(C(=O)CN3C(=O)C(C)Oc4ccccc43)CC2)c(=O)n(C)c(=O)n1C (stereo unspecified) | 0.19 | .
O=C1NCCOc2ccc(S(=O)(=O)Nc3cccc(Cl)c3)cc21 | 2.4 | .
CN(Cc1ccccc1)C(=O)C1=CC(c2ccc(F)cc2)=NS(=O)(=O)N1C | -0.42 | -2.4
Clc1ccc(Cc2nnc(-c3ccccc3)o2)cc1 | -0.34 | -0.75
CCc1nn(C(CC)C(=O)NC2CCCC2)c(=O)c2cc3oc(C)cc3n12 (stereo unspecified) | 0 | -0.52
CCc1nnc(NS(=O)(=O)c2ccc(N/C=C\C(=O)c3ccc4ccccc4c3)cc2)s1 | . | -3.5
Cc1oc(C)c2c(=O)cc(-c3ccc4c(c3)OCO4)cc(OC(=O)c3cccc(Br)c3)c12 | 2.3 | -0.41
Cc1ccc2c(Cl)c(C(=O)N(Cc3cccs3)C3CCS(=O)(=O)C3)sc2c1 (stereo unspecified) | 2 | -0.77
Cn1c(SCc2cccc(Cl)c2)nc(=O)c2c1NC(=O)CC2c1ccc2c(c1)OCCO2 (stereo unspecified) | 2 | -1.4
CC1(C)CC(=O)C2=C(C1)Nc1n[nH]c(-c3ccccc3)c1C2c1cccc(Br)c1 (stereo unspecified) | -0.39 | .
N#Cc1ccc(C#Cc2ccccc2)cc1 | . | -0.88
O=C(CSc1nnc(-c2ccccc2F)o1)Nc1nccs1 | . | -0.62
C=CCNc1nc(Nc2ccc(C)c(Cl)c2)c2cnn(C)c2n1 | 1.6 | .
Cc1[nH]n2c(=O)cc(-c3ccccc3Cl)nc2c1-c1ccccc1 | 0.83 | -0.42
Cc1cc2c3c([nH]c2cc1S(=O)(=O)NCCCc1ccco1)CC(C)(C)CC3=O | 1.5 | .
Cc1ccc(-n2ccn3c(CCC(=O)O)nnc3c2=O)cc1C | 1.6 | -0.57
CC1=C(C(=O)NCCCN2CCc3ccccc3C2)C2(CCCCC2)OC1=O | -1.4 | -1.8
COC(=O)c1ccc(C2CC(=O)Nc3c2c(=O)nc(SCc2ccc(F)cc2)n3C)cc1 (stereo unspecified) | 0.05 | -1.2
CCn1nc(C)c(CNC(=O)Nc2ccc(Br)c(C)c2)c1C | -0.54 | .

Reprinted from the part before: 6 entries, followed by the next part.
SMILES | TAR Tat displ | CDC25B-CDK2 inh
Cc1[nH]n2c(=O)cc(-c3ccccc3Cl)nc2c1-c1ccccc1 | 0.83 | -0.42
Cc1cc2c3c([nH]c2cc1S(=O)(=O)NCCCc1ccco1)CC(C)(C)CC3=O | 1.5 | .
Cc1ccc(-n2ccn3c(CCC(=O)O)nnc3c2=O)cc1C | 1.6 | -0.57
CC1=C(C(=O)NCCCN2CCc3ccccc3C2)C2(CCCCC2)OC1=O | -1.4 | -1.8
COC(=O)c1ccc(C2CC(=O)Nc3c2c(=O)nc(SCc2ccc(F)cc2)n3C)cc1 (stereo unspecified) | 0.05 | -1.2
CCn1nc(C)c(CNC(=O)Nc2ccc(Br)c(C)c2)c1C | -0.54 | .
O=C1CC(Nc2ccc3c(c2)OCO3)C(=O)N1c1ccccc1 (stereo unspecified) | -0.32 | -2.8
Cc1ccc(-c2sc(=S)n3c2[nH]c(=O)c2ccccc23)cc1 | -0.54 | 0.05
CCCCCCSc1nnc(/N=C/NO)s1 | . | -1.1
COc1ccc(S(=O)(=O)c2cnc3cc(OC)c(OC)cc3c2N2CCCC(C)C2)cc1 (stereo unspecified) | 0.85 | 0.31
O=C(NCc1ccc2c(c1)OCO2)c1ccc2nsnc2c1 | 1 | .
COc1cc(OC)c(NC(=O)NCc2c(-n3cccc3)sc3c2CCN(C)C3)cc1Cl | -1.5 | .
CCn1c(=O)c(N2CCC(C(=O)O)CC2)nc2cccnc21 | -1 | -0.36
CCOC(=O)c1ccc(NS(=O)(=O)c2c(C)nc3sc(C)cn3c2=O)cc1 | 0.32 | .
Clc1ccc2c(c1)N=C(N1CCNCC1)c1ccccc1N2 | . | -0.7
Clc1ccc(-c2noc3ncnc(Nc4ccc5c(c4)OCO5)c23)cc1 | 0.31 | .
CSc1cccc(NC(=O)c2sc3nc4n(c(=O)c3c2C)CCCC4)c1 | 1.7 | .
Cc1nc(N2CCCC2)ncc1C(=O)O | 0.85 | -0.15
N/C(CC(=O)Nc1ccc(F)cc1F)=N\OC(=O)c1cccs1 | . | -1.3
CCCCNC(=O)c1cc2n(n1)CC(C)(C(=O)NCCC(C)C)N(C)C2=O (stereo unspecified) | -1.3 | .
COc1ccc(-c2noc(NCCc3cc(OC)ccc3OC)n2)cc1 | -1.4 | .
CCOc1ccc(NC(=O)CCNC(=O)Cn2cnc3ccccc3c2=O)cc1 | . | 2.8
COc1cc(OC)c(C2OC(c3ccc(OC(C)=O)cc3)=NN2C(C)=O)cc1Br (stereo unspecified) | 1.8 | .
Cc1ccc2nc(Nc3ccc(C(=O)O)cc3)c3nncn3c2c1 | 3.6 | -0.61
COC(=O)c1c(N)[nH]c2cc(C(F)(F)F)ccc12 | . | -0.64
CCOC(=O)c1cn(C)c2cc(N3CCCC3)c(F)cc2c1=O | 1.9 | -0.46
O=C(CCN1C(=O)C2CC=C(Cl)CC2C1=O)Nc1cccc2ccccc12 (stereo unspecified) | . | 1.4
O=C1C2C3c4ccccc4C(c4ccccc43)C2C(=O)N1CCNc1cccc2ccccc12 (stereo unspecified) | . | 1.7
Cc1cc(NC(=O)Cn2cnc(S(=O)(=O)N3CCOCC3)c2)no1 | 0.13 | .
COc1ccc(S(=O)(=O)N2CCN(c3cc(N4CCCC4)nc(C)n3)CC2)cc1C | -0.92 | -1.2
O=C(Nc1ccc(Br)cc1F)N1CCC(CN2CCCC2)CC1 | 1.4 | .
CC(=O)n1c2ccccc2c2nc(N)sc21 | -0.72 | 0.44
CCN1CCN(C(=O)CN2Cc3ccccc3C2=O)CC1 | 0.85 | .
COc1ccc(CN2CCCN(Cc3ccc(OC)cc3)C2c2cccc3c2OCO3)cc1 | . | -0.29
CC(C)(C)Sc1ccc(Cl)nn1 | 0.66 | 0.89
COc1ccc(Nc2ncnc3c2cnn3-c2ccccc2)cc1OC | 0.87 | 0.3

One compound at a time (already shown). Order of screens: TAR Tat displ	CDC25B-CDK2 inh
`O=C1C2C3c4ccccc4C(c4ccccc43)C2C(=O)N1CCNc1cccc2ccccc12` (stereo unspecified) is entered as .	1.7
`O=C(CCN1C(=O)C2CC=C(Cl)CC2C1=O)Nc1cccc2ccccc12` (stereo unspecified) is entered as .	1.4
`Cc1cc(NC(=O)Cn2cnc(S(=O)(=O)N3CCOCC3)c2)no1` is entered as 0.13	.
`COc1ccc(Nc2ncnc3c2cnn3-c2ccccc2)cc1OC` is entered as 0.87	0.3
`Cc1ccc2nc(Nc3ccc(C(=O)O)cc3)c3nncn3c2c1` is entered as 3.6	-0.61

The list goes on:
SMILES | TAR Tat displ | CDC25B-CDK2 inh
Cc1nc(SCC(=O)OC2CCCCC2)cc(-c2ccccc2)n1 | 2.4 | -1.1
COc1ccc(Cc2nn3c(-c4ccncc4)nnc3s2)cc1 | 0.92 | -0.06
O=C(CN1C(=O)COc2ccc(S(=O)(=O)N3CCCC3)cc21)NCCCSC1CCCCC1 | 2.2 | -0.61
CNC(=O)c1ccc2c(c1)N=C(C)c1c(C)ccc(C)c1S2 | . | -0.94
Cn1c(C2CC(=O)N(c3ccccc3Cl)C2)nc2ccccc21 (stereo unspecified) | -0.22 | -1.8
Clc1ccccc1OCc1nc2ccccc2[nH]1 | 1 | 0.64
Cc1ccc(-c2noc(-c3cccs3)n2)cc1 | 0.58 | 2.2
COCCNc1oc2c(c1-c1ccc(Br)cc1)c(=O)oc1ccccc12 | 1.8 | .
CCOC(=O)C1(C(F)(F)F)N=C(N(C)C)OC(N(C)C)=N1 | . | 0.04
Fc1ccc(-c2nnc3ccc4ccccc4n23)cc1 | 1.2 | -0.67
O=S(=O)(Cc1ccccc1)NCc1ccc2c(c1)OCO2 | 0.46 | 0.02
O=C(CC1SC2=NCCN2C1=O)Nc1ccc(Cl)cc1 (stereo unspecified) | . | -0.92
COc1ccc(CNS(=O)(=O)c2cc(-c3cc(C)no3)ccc2OC)cc1OC | 2.2 | .
CC(=O)Nc1ccc(N(CN2C(=O)CCC2=O)CN2C(=O)CCC2=O)cc1 | . | -1.4
O=c1ccc(-c2ccc(S(=O)(=O)Nc3ccc4c(c3)OCO4)s2)n[nH]1 | 0.11 | .
COc1ccc(C(=O)c2sc3nc(C)cc(-c4cccs4)c3c2N)cc1OC | 0.49 | 0.05
O=C1CCCc2cc(S(=O)(=O)N3CCN(c4ccc(Cl)cc4)CC3)ccc2N1 | 1.9 | .
C1=C(CCNc2c3c(nc4ncnn24)CCC3)CCCC1 | 2.1 | .
O=C(NCc1cccs1)C1=Cc2ccccc2OC1 | 1.3 | .
Cc1nc2c3cccnc3nn2c(C)c1CCC(=O)N1CCc2ccccc21 | 0.7 | 0.24
Clc1ccc(Sc2sc(Br)cc2C2SCCCS2)cc1 | . | -4.5
Cc1cc(C)n2ncc(C(=O)NCCN3CCOCC3)c2n1 | 0.36 | .
N#Cc1ccccc1/C=C/c1cccs1 | . | -0.52
O=S(=O)(NCCc1csc2nc(-c3cccc(F)c3)nn12)c1ccc(Cl)cc1 | 0.11 | .
C=CCN1C(=O)C(O)(CC(=O)c2ccc(CC)cc2)c2ccccc21 (stereo unspecified) | -0.22 | -0.68
CCCN(CCC)C(=O)C(=O)c1c(C)n(C)c2ccccc12 | . | -1.7
CCOC(=O)C(NC(=O)Nc1ccccc1)(Nc1ccccc1OC)C(F)(F)F (stereo unspecified) | . | -1.3
CCN(CC)S(=O)(=O)c1ccc(Cl)c(C(=O)Nc2cccc(C(=O)O)c2)c1 | . | -2.1
Cn1c(SCC(=O)c2ccc(F)cc2)nnc1-c1cccs1 | 1.1 | .
COC(=O)c1scc(-c2ccccc2)c1S(=O)(=O)Nc1ccc2c(c1)OCCO2 | -0.88 | .
COCCn1c(Cc2cccn2C)nnc1SCC(=O)Nc1nnc(C)s1 | 1.1 | 0.52
COc1cccc(N(CC(=O)Nc2ccccc2OC)C2=NC3CS(=O)(=O)CC3S2)c1 (stereo unspecified) | 0.68 | -2.8
Cc1cccn2c(=O)c(NC(=O)c3ccccc3)cnc12 | 0.08 | 0.2
C=CCN1C(C(=O)c2ccccc2)=C(OC(C)=O)c2ccccc2S1(=O)=O | 11 | -0.33
CCCN=C(C)c1c(O)cc(C)oc1=O | . | -1.3
N#CC1=C2SCN(Cc3ccccc3)CN2C(=O)CC1c1cccc2ccccc12 (stereo unspecified) | -0.85 | 0
Cc1ccc(CNC(=O)c2cnc3c(C)cccn3c2=O)o1 | 0.79 | .
O=C1c2ccccc2-c2c(NCCc3ccccc3)c(=O)[nH]c3cccc1c23 | -7.7 | -1.3
C=C(C)[C@@H]1CC=C(C(=O)O)CC1 | 2.7 | .
COc1ccc2cc3c(nc2c1)N(S(=O)(=O)c1c(C)cc(C)cc1C)CC3 | 0.35 | -0.9
CC(C)OC(=O)C(C(=O)C(F)(F)F)c1cc(NS(=O)(=O)c2ccc(F)cc2)c2ccccc2c1O (stereo unspecified) | . | 2.4
O=C(c1cccs1)N(Cc1ccc(Cl)cc1)Cc1ccco1 | 2.9 | -1.1
